# FEN1 inh – human FEN1 inhibition | Recombinant FEN1 flap cleavage, fluorescence, 15 min | Potency, µM (doses to about 114 µM), inactives show at the top dose activity change, negative = inhibition, most hits filed as inhibitors | P39748 | AID 588795 | 390,000 tested, 0.35% active; further: nearly all actives have a fitted effect of over 65% in size
# Target sequence (P39748 whole entry, looked up): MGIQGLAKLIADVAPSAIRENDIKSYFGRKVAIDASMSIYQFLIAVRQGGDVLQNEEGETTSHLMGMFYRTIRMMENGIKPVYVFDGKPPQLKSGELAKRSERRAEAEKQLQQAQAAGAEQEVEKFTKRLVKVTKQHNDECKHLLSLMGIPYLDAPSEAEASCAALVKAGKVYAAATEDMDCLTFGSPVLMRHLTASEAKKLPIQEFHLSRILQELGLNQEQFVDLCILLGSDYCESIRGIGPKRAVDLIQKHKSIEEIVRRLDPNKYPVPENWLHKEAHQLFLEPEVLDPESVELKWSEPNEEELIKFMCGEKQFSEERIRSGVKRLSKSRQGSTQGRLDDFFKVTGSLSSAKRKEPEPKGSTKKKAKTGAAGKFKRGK
#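 Read-out was taken twice, immediately and after 15 min, following addition of 50 nM substrate to 10 nM FEN1 that had sat with test compound for 15 min at room temperature. Curves came from a four-parameter Hill model.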
# TDP1 cell CPT – growth inhibition of DT40 Tdp1-/-;hTDP1 cells with camptothecin (screen for TDP1 inhibitors); 420,000 tested, 12% active; chicken DT40 Tdp1-/-;hTDP1 cells + 20 nM CPT, ATP luminescence, 48 h; AID 686979; Potency, µM (doses to about 46.2 µM), for inactives: at the top dose activity change, negative = growth inhibition, actives largely listed as inhibitors; further: nearly all actives have a fitted effect of over 55% in size
#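 Chicken DT40 Tdp1-/- cells complemented with human TDP1, 400 cells/well, exposed to compounds plus 20 nM camptothecin for at least 48 h at 37 C; viability read as ATP content by CellTiter-Glo luminescence.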
# * hit, by the source's call; ? = inconclusive; nt = not tested or not shown; & = joins results of further samples. The call rests on the fitted dose curve; in most records, active means well fitted curve in the direction sought with a large enough effect; inconclusive means small, poorly fitted or top-dose-only effect, or another doubt; inactive means no such curve, though single readings can be large; an effect the other way counts as inactive or inconclusive. On the % scale 0 is the no-effect control and ±100 the full control effect; potency means the concentration at half of the fitted maximal effect.
Molecule	TDP1 cell CPT	FEN1 inh
Cc1cc(C(=O)CSc2nc3ccccc3[nH]2)c(C)n1CC1CCCO1 (stereo not given)	7.3µM*	-3%
COc1ccc(C(=O)N=c2sc3c(C)ccc(OC)c3n2C)cc1OC	5.2µM*	9%
CCN(c1ccc(OC)cc1)S(=O)(=O)c1ccc2c(c1)NC(=O)CS2	-40%	3%
Fc1ccc(C(Nc2ccccn2)c2c[nH]c3ccccc23)cc1 (stereo not given)	?	-18%
Cc1c(Nc2nc3ccccc3nc2NS(=O)(=O)c2cccc(Cl)c2)c(=O)n(-c2ccccc2)n1C	-1%	7%
COc1ccc(C(=O)COC(=O)c2ccc3ccccc3n2)cc1	21µM*	12%
C/C=C1\COC(C(=O)NCc2ccccn2)(C(F)(F)F)C=C1C=C(C)C (stereo not given)	nt	-4%
C=CCn1c(=O)c2ccccc2n2c(SC(C)C(N)=O)nnc12 (stereo not given)	24%	11%
CN(Cc1nc(-c2cccc(Cl)c2)no1)C1CCOCC1	-30%	-3%
O=C(O)CC(Cc1ccc(Cl)cc1)C(=O)NCC12CC3CC(CC(C3)C1)C2 (stereo not given)	5%	-4%
CCCCOc1cccc(C(=O)Nc2ccc(N3CCN(CC)CC3)cc2)c1	?	-2%
CCCOc1ccc(-c2nc(C#N)c(N3CCC(C(N)=O)CC3)o2)cc1	-5%	6%
COc1ccccc1-c1cc2nc(C)c(CCC(=O)NC(C)CCc3ccco3)c(C)n2n1 (stereo not given)	23µM*	11%
O=C(Nc1ccc(S(=O)(=O)N2CCOCC2)cc1)c1ccc(S(=O)(=O)N2CCOCC2)cc1	-5%	11%
Cc1cccc(C(=O)N(c2ccccn2)C(C)c2ccco2)c1 (stereo not given)	?	1%
C/C(=N\Nc1nc2ccccc2[nH]1)c1cc2ccccc2o1	?	-22%
COC(=O)c1ccccc1S(=O)(=O)N(CCCN1CCOCC1)Cc1cccs1	-12%	-4%
Cc1nc(-c2cccc(NC(=O)COc3ccc(Cl)cc3)c2)cs1	?	4%
CCn1ccnc1CNC(=O)C1CCC(=O)N(Cc2cccc(C(F)(F)F)c2)C1 (stereo not given)	2%	21%
Cc1csc(C2=C(O)CN(CCc3ccccc3)C2=N)n1	?	0%
CCOc1ccc(N2CC(C(=O)Nc3cccc(S(=O)(=O)N4CCCCC4)c3)CC2=O)cc1 (stereo not given)	-22%	-3%
Cc1ccc(C(=O)N/C(=C/c2ccco2)C(=O)O)cc1	-1%	-6%
COC(=O)c1ccc(CSC(=N)N)o1	16µM*	4%
COc1ccc(NC(=O)COC(=O)c2ccc(S(=O)(=O)N3CCCCCC3)cc2)c(OC)c1	8%	5%
CCOc1ccc(-c2ncncc2-c2ccc(OC)c(OC)c2)c(O)c1	?	-8%
CCn1c(=N)n(CC(=O)c2cccc([N+](=O)[O-])c2)c2ccccc21	?	-18%
O=C(CCc1nnc2n(CCc3ccccc3)c(=O)c3ccccc3n12)NCCCN1CCCCC1	?	15%
C/C(N)=C(/C#N)C(=O)CSc1nnc(-c2ccc3c(c2)OCO3)o1	?	4%
COc1ccccc1N1CCN(C(=O)CN(Cc2ccccc2)S(C)(=O)=O)CC1	-17%	-10%
O=[N+]([O-])c1ccc(COn2nnc3ccccc32)cc1	-19%	2%
COc1ccc(NC(=O)Nc2cccs2)cc1Cl	?	8%
CC(C)(C)C1CCC2(CC1)NC(=S)N(c1ccccc1)N2 (stereo not given)	?	-12%
Cc1ccc2ncnc(Nc3cccc([N+](=O)[O-])c3)c2c1	23µM*	-33%
CC(NC(=O)Nc1ccc(Cl)c(Cl)c1)C(c1ccccc1)N1CCOCC1 (stereo not given)	26µM*	0%
CCOC(=O)c1cnc2c(c(C)nn2C)c1Oc1cc(Cl)cc(Cl)c1	?	4%
Cc1cccc(CSc2ncccc2C(=O)O)c1	-26%&0%	15%&-14%
COc1ccc(N2C(=O)C(CN3CCCCC3)C2c2ccccc2)cc1 (stereo not given)	?	-7%
COc1ccc(/C(=N/Nc2ncnc3ccccc23)C(=O)O)cc1	21µM*	1%
CCn1c(-c2ccoc2C)n[nH]c1=S	2%	8%
Cc1ccc2c(CC(=O)OC3CCOC3=O)coc2c1 (stereo not given)	5%	2%
O=C(Nc1ccc(Cl)cc1)Nc1ccccc1NS(=O)(=O)c1cccs1	-4%	9%
CCOC(=O)c1c(CN2CCOCC2)oc2ccc(OC(C)=O)cc12	10%	3%
CCN1CCCC1CNC(=O)Cn1cccc1C(=O)c1ccccc1C (stereo not given)	4%	6%
O=C(CNC(=O)C12CC3CC(CC(C3)C1)C2)N/N=C\c1ccco1	9%	5%
O=C(CN1C(=O)NC2(CCCC2)C1=O)N1CCCSC1=Nc1ccccc1	-19%	3%
CCOC(=O)c1c(C)c(C(=O)Nc2ccc3c(c2)OCO3)c(C)n1C	1%	4%
O=C(C1=C[C@H](c2ccc3c(c2)OCO3)C[C@H](OCc2ccc(CO)cc2)O1)N1CCCCCCC1	?	-4%
COc1ccccc1NC(=O)c1ccc([N+](=O)[O-])cc1[N+](=O)[O-]	-6%	16%
CC1CCN(C(=O)COc2ccc(S(=O)(=O)N3CCCC3)cc2)CC1	-9%	-1%
CC(C)OCC(O)CSc1ccccn1 (stereo not given)	-15%	-11%

# The listing continues.
Molecule	TDP1 cell CPT	FEN1 inh
O=C(Nc1ccccc1)N1CCc2scc[n+]2-c2ccccc21	5.8µM*	0%
CCOc1ccc2nc(SCC(=O)N(C)C3CCS(=O)(=O)C3)[nH]c2c1 (stereo not given)	9%	-10%
Cc1c(NC(=O)CN2CCN(c3ccc(F)cc3)CC2)c(=O)n(-c2ccccc2)n1C	1%	-3%
CCOC(=O)N1CCN(C(=O)Cn2ncc3c2-c2ccccc2OC3)CC1	?	17%
CCCCNC(=O)CN1CCN(Cc2ccc3cc(OC)ccc3c2)CC1	?	9%
CC(Oc1cccc(Cl)c1)C(=O)Nc1nc(-c2ccccn2)cs1 (stereo not given)	3.3µM*	8%
COCCNCC(=O)N1c2ccccc2Sc2ccccc21	-9%	15%
Cn1c(=O)cc(SCC(=O)NCc2ccco2)c2ccccc21	?	-14%
CCNC(=O)COC(=O)/C=C/c1ccccc1[N+](=O)[O-]	3%	3%
CCCCN1C(=O)CC(C(=O)OCC)=C1C	-2%	14%
COc1ccc(NC(=S)N/N=C2\CC(C)(C)Oc3ccc(OC)cc32)cc1	5.8µM*	-18%
CCOC(=O)c1cccnc1NC(=O)c1ccccc1	6%	-2%
C/C(=N\NC(N)=O)c1ccccc1Cl	9%	6%
CCCCCn1c(=O)[nH]c2cc(C(=O)N3CCN(CC)CC3)ccc2c1=O	-27%	-8%
CCOc1ccccc1OCCn1ncc2ccc(OC)c(OC)c2c1=O	-25%	-11%
O=C(N/N=C/c1ccccc1OC(F)F)C1=COCCO1	18%	2%
CC1CCN(Cc2nnnn2CCCC(=O)NCC(C)(C)N2CCOCC2)CC1	-11%	-4%
CC1(C)O[C@H]2OC([C@H](O)CON3C(=O)c4ccccc4C3=O)[C@H](O)[C@H]2O1 (stereo not given in full)	-3%	-4%
Cc1ccc(-n2c(SCCN)nnc2-c2cccc(C)c2)cc1	?	3%
Cc1nonc1OCCNC(=O)C12CC3CC(CC(C3)C1)C2	-4%	6%
Cc1c(-c2ccccc2)c(=O)oc2ccc(O)cc12	-28%	5%
COc1ccc(CCNC(=O)COc2cc(O)c3c(c2)OC(C)(C)CC3=O)cc1	?	11%
Cc1ncc(CN2CCCC(C(=O)Nc3ccc(-c4cccc(F)c4)cc3)C2)n1C (stereo not given)	23µM*	2%
COc1ccc(-c2c(-c3ccc4c(c3)OCO4)noc2C)cn1	?	-11%&-27%
CS(=O)(=O)N1CCC(C(=O)Nc2ccccc2Sc2ccccc2)CC1	-7%	2%
COc1ccccc1NC(=O)c1ccc(CSc2ccccc2)o1	?	-21%
O=C(COc1ccc(Cl)cc1Cl)Nc1ccc(Cl)cn1	-12%	-13%
Cc1nc2ccccc2c(=O)n1/N=C/c1ccccc1	-19%	3%
CCO[C@H]1OC(C(=O)N2CCN(C)CC2)=C[C@@H](c2ccc(C(F)(F)F)cc2)[C@@H]1CCCO	-4%	17%
O=S(=O)(Cc1ccc(Cl)cc1)Nc1ccc(Cl)cn1	1%	0%

# Whole records, quoted from the list. Screens in order: TDP1 cell CPT	FEN1 inh
# `COc1ccc(-c2c(-c3ccc4c(c3)OCO4)noc2C)cn1` is listed as ?	-11%&-27%
# `COc1ccc(CCNC(=O)COc2cc(O)c3c(c2)OC(C)(C)CC3=O)cc1` is listed as ?	11%
# `Cc1ncc(CN2CCCC(C(=O)Nc3ccc(-c4cccc(F)c4)cc3)C2)n1C` (stereo not given) is listed as 23µM*	2%

# More entries
Molecule	TDP1 cell CPT	FEN1 inh
NS(=O)(=O)c1ccc(CCNS(=O)(=O)c2cccc3nsnc23)cc1	28%	-1%
N#Cc1ccc(CSc2nnc(-c3cccnc3)n2-c2ccccc2)cc1	-30%	-1%
CCn1ccnc1CNCc1cn(-c2cc(C)ccc2C)nc1-c1ccccc1	?	12%
O=C(NCc1ccccc1)c1ccc2c(=O)n3c(nc2c1)CCCCC3	-6%	-2%
Cc1cc(N2CCN(Cc3nc(-c4ccc(Cl)cc4)oc3C)CC2)cc(C)n1	12µM*	-13%
Cc1ccccc1C(=O)NCCN=C1NS(=O)(=O)c2ccccc21	-1%	2%
O=C(O)c1cc(-c2cccc([N+](=O)[O-])c2)nc2ccccc12	-6%	2%
COC(=O)c1ccccc1NC(=S)NC(=O)c1cccc2ccccc12	16µM*	0%
CCCCN1CCNC[C@@H]1Cc1ccc(O)cc1	-10%	10%
CC1CN(C2CCN(C(=O)COc3ccc(Cl)cc3)CC2)CC(C)O1 (stereo not given)	?	14%
CC(=O)c1c(C)oc2ccc(N(C(C)=O)S(=O)(=O)c3ccc(Cl)c([N+](=O)[O-])c3)cc12	?	-4%
Cc1cc(OC(C)C(=O)NCC(O)c2ccccc2)c2c(C)cc(=O)oc2c1 (stereo not given)	-8%	-19%
O=C(Nc1cccc2c1C(=O)NC2=O)c1cccnc1Cl	-7%	-1%
CC(C)CC(C(=O)NC(C)(C)C)N(Cc1cccs1)C(=O)c1snc(C(N)=O)c1N (stereo not given)	?	-18%
O=C(Nc1cccc(C(F)(F)F)c1)Nc1ccon1	-27%	-14%
Cc1ccc(CNC(=O)CCS(=O)(=O)c2cccc3nonc23)cc1	24%	-15%
O=C(CCC(=O)N1CCCCCC1)Nc1ccc([N+](=O)[O-])cc1	-1%	-12%
COC(=O)C1=C[C@@H](C(=O)OC)[C@@H]2C3=C(C(=O)[C@]2(C)NC(=O)c2ccccc2)[C@H](C)n2c(=O)n(-c4ccccc4)c(=O)n2[C@@H]3C1	20%	-7%
CCn1c(SCC(=O)NC(C)C(C)C)nc2cc(S(=O)(=O)N3CCOCC3)ccc21 (stereo not given)	4%	7%
CC(=O)/C(=N\Nc1ccccc1Cl)Sc1cccc2cccnc12	?	-12%
Cc1nn(C(C)C(=O)O)c(=O)c2c1sc1ccccc12 (stereo not given)	5%	-9%
Cc1nn(C)c(C(=O)NNC(=O)NC2CCCCC2)c1Cl	2%	2%
Cc1ccc(NC(=O)CN2C(=O)S/C(=C\c3cccn3C)C2=O)cc1	-9%	6%
O=C(Nc1nnc(CCN2CCOCC2)s1)C1CCCCC1	4%	-1%
COC(=O)C(CCSC)NC(=O)c1cccc([N+](=O)[O-])c1 (stereo not given)	-19%	4%
COc1cccc(CN(C)C(=O)c2ccc(NC(=O)CC3SC(N4CCCC4)=NC3=O)cc2)c1OC (stereo not given)	-14%	-2%
COc1cccc(/C=N/n2cncn2)c1OCC#N	-12%	0%
COC(=O)c1ccc(Oc2nc3c(c(=O)n(C)c(=O)n3C)n2CCC(C)C)cc1	?	5%
Cc1cc(C)c(NC(=O)CSc2nnnn2-c2cccnc2)c(C)c1	8%	-8%
Nc1ccc2c(c1)CC(=O)c1ccccc1S2	-28%	-5%
O=C(Nc1ccccn1)C(F)(F)C(F)(F)C(F)(F)C(F)(F)C(=O)Nc1ccccn1	0%	-14%
CN1CCN(c2ccc(S(=O)(=O)N3CCCCC3)cc2NC(=O)/C=C/c2ccc(Cl)c([N+](=O)[O-])c2)CC1	?	-11%
Cc1ccnc(NS(=O)(=O)c2ccc(NC(=O)c3ccc(S(=O)(=O)N(C)C)cc3)cc2)n1	-11%	-13%
CCc1nnc(NS(=O)(=O)c2ccc(NCc3cc(Cl)ccc3O)cc2)s1	?	0%
CCOc1ccc(N2CC(=O)N/C2=N\c2nc(C)cc(C)n2)cc1	-12%	0%
CC(C)(Oc1ccc(Cl)cc1)C(=O)NNC(=O)c1ccc(Br)o1	-7%	-4%
CCCCNC(=O)NC(C(=O)OC)C12CC3CC(CC(C3)C1)C2 (stereo not given)	-4%	-2%
CCNS(=O)(=O)c1ccc(NC(=O)c2c(-c3ccccc3)noc2C)cc1	-5%	-2%

# This is a subset; most or all hits stand in other tables.
